High-throughput results: PubChem, several laboratories
AF4-AF9 inh = blocks AF4 peptide binding to human AF9; 350,000 compounds, 0.47% hits; P42568; AlphaScreen, biotin-AF4 peptide binding to FLAG-AF9; inhibition, % at 10 µM;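 active = every replicate reaching a set inhibition limit, whatever the replicate mean, cut at about 25% in these data; inconclusive = mean inhibition reaches that limit but some replicates miss it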;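 note: 0% = plate neutral control median and 100% = total signal loss; the record names both 10 and 1 µM as test concentration; the first replicate is given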
Ecoli growth = inhibitors of Escherichia coli growth; OD600, 23 h; hits give low values; OD600 absorbance (no concentration beside the values); 330,000 compounds, 0.21% hits; AID 1053175;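 active = OD600 absorbance below the run mean of sample wells minus 3.6 SD, in any replicate, cut at about 0.56 in these data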;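 note: stock transfer was 300 nL into about 60 µL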
Vif TR-FRET = HIV-1 Vif–A3G interaction blockers – biochemical, TR-FRET, GST-Vif 1-94, biotin-A3G peptide, dose response retest, primary screen (AID 1117319); 260,000 compounds, 0.57% hits; TR-FRET GST-Vif / biotin-A3G peptide binding; higher % means a stronger effect; test concentration not given here; strong numbers were not always called active; inhibition, %, or IC50 in µM where a hit was titrated;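 active = above the screen mean plus three standard deviations and confirmed in dose response; inconclusive = results disagree or hit not tested in dose response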;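 note: Vif residues 1-94 fused to GST binding biotinylated APOBEC3G peptide 110-148; 0% = full assay without inhibitor and 100% = GST in place of GST-Vif; retest series ran down from 100 µM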
ALR inh = human ALR oxidase inhibition via reduced H2O2; P55789; purified ALR, DTT oxidation, H2O2 HRP-luminol luminescence; inhibition, % (no concentration beside the values); 290,000 compounds, 3.8% hits; AID 485317;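 active = mean and each replicate at 75% or more; inconclusive = only one of the two met; inactive = neither met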;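 note: stock transfer was 7.5 nL into about 7.5 µL; 0% = neutral wells and 100% = wells with inactivated enzyme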
Target sequence (P55789 whole entry, looked up): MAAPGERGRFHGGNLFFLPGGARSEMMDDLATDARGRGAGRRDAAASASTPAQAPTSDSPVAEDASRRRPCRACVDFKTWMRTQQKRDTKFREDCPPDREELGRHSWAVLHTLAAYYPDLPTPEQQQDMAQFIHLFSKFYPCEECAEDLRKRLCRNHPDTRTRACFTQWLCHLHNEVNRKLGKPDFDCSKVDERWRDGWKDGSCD
FGF22 binding = shifts melting point of recombinant human FGF22; Q9HCT0; recombinant FGF22 thermal shift, SYPRO orange fluorescence; percent of sucrose octasulfate shift, DMSO zero; calls only at 9.99 µM; 340,000 compounds, 1.5% hits; AID 651658;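 active = melting point raised past a set limit in the mean and every replicate; inconclusive = no clear call; three in four hits are not shown here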
Target sequence (Q9HCT0 whole entry, looked up): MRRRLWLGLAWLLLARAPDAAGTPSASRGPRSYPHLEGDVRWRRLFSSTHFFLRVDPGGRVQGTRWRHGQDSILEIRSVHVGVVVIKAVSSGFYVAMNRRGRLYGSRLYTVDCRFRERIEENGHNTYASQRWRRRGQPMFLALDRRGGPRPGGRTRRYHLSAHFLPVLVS
HNF4A DNA FP = change in binding of human HNF4 alpha to DNA; 360,000 compounds, 0.3% hits; HNF4a-FITC DNA binding, fluorescence polarization, 1 h; activity change, % at 10 µM; in the data active = activity change above about 30%, passing the limit was not always enough;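 note: controls were the assay level and a saturating level of protein; the project sought stronger binding though the title names inhibitors; some compounds called inactive have numbers as strong as hits; positive values seem to mean higher polarization but the record does not say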
Target sequence (P41235 whole entry, looked up): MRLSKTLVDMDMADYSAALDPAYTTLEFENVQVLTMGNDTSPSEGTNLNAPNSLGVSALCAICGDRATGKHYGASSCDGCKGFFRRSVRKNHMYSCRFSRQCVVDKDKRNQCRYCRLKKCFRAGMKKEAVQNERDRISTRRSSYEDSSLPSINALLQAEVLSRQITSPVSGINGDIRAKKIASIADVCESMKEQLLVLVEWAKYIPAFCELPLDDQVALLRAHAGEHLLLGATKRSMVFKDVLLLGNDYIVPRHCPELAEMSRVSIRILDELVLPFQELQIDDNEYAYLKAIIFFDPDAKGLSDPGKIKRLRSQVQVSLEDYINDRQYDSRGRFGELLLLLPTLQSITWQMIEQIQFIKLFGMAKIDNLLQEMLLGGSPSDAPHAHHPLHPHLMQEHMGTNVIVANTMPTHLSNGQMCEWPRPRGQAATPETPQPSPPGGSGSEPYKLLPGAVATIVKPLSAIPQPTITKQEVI
Ecoli rRNA inh = selective bacterial rRNA inhibition in E. coli. E. coli WT GFP vs humanized-ribosome RFP mutants, fluorescence, 24 h; hits give low values; DMSO median 0, no signal -100. GFP signal change (wild-type ribosome), % (concentration not given with the values). 350,000 compounds, 1.6% hits;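 active = significant combined selectivity score with lowered wild-type GFP, culture density cut under 30%, mutant RFP and density less affected; inactive = any of these conditions unmet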; note: one replicate is shown; some compounds called inactive have numbers as strong as hits
Ecoli rRNA inh OD600 = second read-out of Ecoli rRNA inh, no call of its own (marks repeat the call); OD600 change, %; measured here: OD600 growth;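 optical density of the mix in the first replicate; 0 = DMSO median and -100 = no signal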
Ecoli rRNA inh RFP = further read-out of Ecoli rRNA inh, marked with its call; RFP signal change, %; measured here: RFP humanized mutant strains;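 first replicate; 0 = DMSO median and -100 = no signal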
Active calls of the source: *; i = inactive; u = inconclusive; x = not tested or not shown. Some of the compounds tested; rates above refer to the full screens.

AF4-AF9 inh	Ecoli growth	Vif TR-FRET	ALR inh	FGF22 binding	HNF4A DNA FP	Ecoli rRNA inh	Ecoli rRNA inh OD600	Ecoli rRNA inh RFP	smiles
-4.1	x	3%	x	i	0.6	10	5	-0.8	CNC(=O)C[C@H]1C(=O)N(c2ccc(Br)cc2)C[C@@H]1C
-1.5	x	x	x	i	0.5	x	x	x	Cc1ccc(F)c(S(=O)(=O)NC(=O)C2(C)CCN2C(=O)c2sccc2C)c1 (stereo not drawn)
-4.2	0.67	6%	-19	i	6.2	14	8	-1.9	CN1CCN(C(=O)c2cc3ccccc3cc2O)CC1
6.0	0.67	-4%	29	i	1.4	6	10	-1.0	COc1ccc(N2CCN(C(=O)Cn3cncn3)CC2)cc1
13	0.79	x	12	i	-0.1	8	7	5.8	Cc1cccc(NC(=O)c2cc(S(=O)(=O)N3CCc4ccccc43)cn2C)c1
-3.8	x	x	x	i	x	-2	-2	-1.1	CO[C@@H]1CN(C)C(=O)c2ccc(NC(=O)C3CC3)cc2OC[C@@H](C)N(CC2CCCC2)C[C@@H]1C
-3.1	x	-4%	x	i	-0.5	9	16	0.0	COc1ccc(-n2c(=O)c3c4c(sc3n(CC(=O)NCC3CCCO3)c2=O)CN(C(C)=O)CC4)cc1OC (stereo not drawn)
-1.7	x	x	x	i	x	3	9	1.2	Cn1cnc(S(=O)(=O)N[C@@H]2C=C[C@@H](CC(=O)Nc3ccccc3)O[C@H]2CO)c1
-0.9	0.66	3%	-2	i	-1.0	2	-1	3.7	CCN(CC)C(=O)CCCC(=O)N(CC)CC
-0.9	0.68	x	-17	i	-0.5	16	15	1.2	COc1cc(C(=O)N=c2sccn2C)c([N+](=O)[O-])cc1OC
1.2	0.69	-1%	x	i	-2.7	-19	-26	3.0	NC(=N\N=CCc1ccccc1)/C(N)=N/N=CCc1ccccc1
-0.1	x	x	x	i	x	-6	-24	31	COc1ccccc1NC(=O)N[C@@H]1CC[C@@H](CC(=O)N2CCC(Cc3ccccc3)CC2)O[C@H]1CO
-1.3	0.71	6%	-5	i	1.6	6	5	-3.4	COCCNC(=O)C(C(=O)c1ccc(F)cc1)n1cc(C)ccc1=O (stereo not drawn)
11	0.64	u	x	i	-2.4	-1	-4	-2.2	Cc1nnsc1C(=O)N1CCC(CO)(Cc2ccccc2Cl)CC1
-11	0.67	11%	-8	i	-0.9	4	-6	33	CN(C)/C=C1/Oc2c(ccc3ccccc23)C1=O
0.2	0.66	0%	-3	i	1.1	-31	-37	-8.4	Cc1ccc(C(C)C)c(OCCSc2nc3ccccc3n2CC(=O)O)c1
x	x	-8%	-7	x	0.6	x	x	x	Nc1nonc1-n1nnc(C(=O)N/N=C/c2ccccc2)c1CSc1ccc(Cl)cc1
0.6	0.67	x	-26	i	-1.0	3	6	-2.8	O=C(NCc1ccccn1)C1CCC(=O)N(Cc2ccc(Cl)cc2)C1 (stereo not drawn)
x	x	-5%	-2	x	-1.4	x	x	x	O=C(COC(=O)CNC(=O)c1ccccc1Cl)Nc1ncc(C(F)(F)F)cc1Cl
-3.6	x	x	-7	i	6.0	12	11	5.6	COC(C/C=C\[C@H](O)[C@@H](C)OCc1ccccc1)OC
-4.7	0.65	6%	8	i	4.4	-16	-19	-2.6	CC1(C)C(=O)N(c2ccccc2)C1c1ccccc1O (stereo not drawn)
-2.6	x	x	x	i	x	-1	5	2.4	C[C@@H]1CCCCO[C@@H](CN(C)Cc2ccc(C(=O)O)cc2)[C@H](C)CN([C@H](C)CO)C(=O)c2cc(NC(=O)Nc3cccc4ccccc34)ccc2O1
-2.4	x	x	-4	i	-1.4	7	7	0.8	CC1CCN(S(=O)(=O)c2ccc3c4c2CC(=O)N4CC(C)S3)CC1 (stereo not drawn)
x	0.69	u	x	x	-0.9	x	x	x	CCOC(=O)c1c(NC(=O)c2ccc(-n3cnnn3)cc2)sc2c1CCCC2
-17	0.67	x	42	i	1.2	-10	-19	-6.8	O=[N+]([O-])c1ccccc1Nc1cccnc1
1.3	x	x	x	i	x	-3	3	-2.9	CO[C@H]1CN(C)C(=O)c2ccc(NC(=O)C3CCC3)cc2OC[C@H](C)N(Cc2nccs2)C[C@@H]1C
1.8	0.73	4%	0	i	2.3	-1	-12	25	Cc1ccc(S(=O)(=O)Nc2cccc(C(=O)NCC(c3ccco3)N3CCCCC3)c2)cc1F (stereo not drawn)
-0.3	0.71	-1%	-6	i	1.2	8	4	0.9	CCc1ccc(OCC(=O)OC(C)C(=O)NC2CC2)cc1 (stereo not drawn)
x	0.69	2%	4	x	0.4	x	x	x	CCOC(=O)CSc1nnc(N)s1
x	0.68	7%	-5	x	-5.1	4	5	-1.6	Cc1ccc2[nH]c(=O)c(C(c3nnnn3CC3CCCO3)N3CCOCC3)cc2c1 (stereo not drawn)
-3.6	0.66	5%	-1	i	-1.9	-14	-9	9.9	O=C(Nc1ccc(OCC(=O)N2CCOCC2)cc1)Nc1cccc(Cl)c1
5.2	x	x	x	i	x	-4	-18	9.0	COc1ccccc1NC(=O)N[C@@H]1C=C[C@H](CC(=O)N2CCC(Cc3ccccc3)CC2)O[C@H]1CO
-2.7	x	x	x	i	x	5	3	-0.9	COc1ccc(NC(=O)N(C)C[C@@H]2Oc3ccc(NC(=O)Nc4ccc(F)cc4)cc3C(=O)N([C@@H](C)CO)C[C@H]2C)cc1
-1.1	x	x	x	i	x	-6	-35	24	COc1ccc(C#Cc2ccc3c(c2)O[C@@H](CN(C)C(C)=O)[C@@H](C)CN([C@@H](C)CO)S3(=O)=O)cc1
5.8	0.7	x	-63	i	0.1	-9	-35	2.4	CCc1ccccc1N(CC)C(=O)C1CCN(c2ncnc3c2nc2n3CCCCC2)CC1
-7.2	0.7	x	x	i	-2.1	13	16	2.2	Cc1c(C(=O)N(C)CCC#N)oc2ccc(S(=O)(=O)N3CCOCC3)cc12
-1.2	x	x	x	i	x	0	7	0.6	C[C@H](CO)N1C[C@H](C)[C@H](CN(C)Cc2ccccc2)Oc2c(NS(=O)(=O)c3cccs3)cccc2C1=O
-5.9	x	x	x	i	x	1	0	2.3	CO[C@H]1CC[C@@H]2CCN(C)C(=O)[C@H](C)[C@@H](OC)CN(C)C(=O)c3cc(C#N)ccc3OC[C@H]1O2
x	0.69	13%	-4	x	-5.0	x	x	x	O=C1CC(Nc2ccc3ccccc3c2)C(=O)N1Cc1ccccc1 (stereo not drawn)
2.8	x	x	x	i	x	0	9	-0.1	C[C@@H]1CCCCO[C@@H](CN(C)S(=O)(=O)c2cccs2)[C@H](C)CN([C@H](C)CO)C(=O)c2cc(NC(=O)Nc3ccccc3)ccc2O1
2.5	0.72	x	-1	i	0.0	5	9	-1.7	CSc1cccc(NC(=O)c2cc(S(=O)(=O)N3CCCCC3)c[nH]2)c1
-0.6	0.66	3%	-16	i	1.8	7	5	1.0	CN(C)C(=O)CSc1nnc(Cc2ccccc2)n1CC1CCCO1 (stereo not drawn)
-1.9	x	x	3	i	x	11	25	-7.2	COc1ccc(/C=C/c2c(-c3cccc(C)c3)oc3ccc(-c4ccc5c(c4)OCO5)cc23)cc1
x	0.64	x	-1	i	3.7	-1	-15	0.3	C=CC(=O)Nc1cccc(Oc2cc(Cl)nc3[nH]ccc23)c1
-1.1	0.7	x	29	i	4.5	5	18	2.7	CCOc1ccc(C(=O)NC2CCN(CC(=O)NCc3ccccc3)CC2)cc1
x	0.65	u	34	x	-3.5	x	x	x	Clc1cccc(-c2nc3nc4ccccc4nc3n2Cc2ccco2)c1
x	0.72	5%	-1	x	1.8	x	x	x	Cc1ccc(S(=O)(=O)N(CC(=O)N2CCN(c3ccc(F)cc3)CC2)C2CCCCC2)cc1
-1.9	0.59	-7%	-1	i	-2.7	25	19	2.9	Cc1ccc(-c2nc3ncccc3o2)cc1NC(=O)c1cccnc1
35*	0.67	-3%	-4	i	1.0	9	11	1.0	COc1cccc(OC)c1C(=O)NNC(=O)c1cccnc1
-5.6	0.69	x	x	i	4.5	x	x	x	O=C(COc1ccc2c3c(c(=O)oc2c1)CCCC3)NC(Cc1ccc(Cl)cc1)C(=O)O (stereo not drawn)

Additional structures follow:
AF4-AF9 inh	Ecoli growth	Vif TR-FRET	ALR inh	FGF22 binding	HNF4A DNA FP	Ecoli rRNA inh	Ecoli rRNA inh OD600	Ecoli rRNA inh RFP	smiles
0.1	0.71	4%	-1	i	-0.1	0	-2	1.0	Cc1ccc(C(=O)C(C)OC(=O)c2ccc(Cl)nc2)cc1 (stereo not drawn)
-9.3	0.77	x	-4	i	-0.7	14	13	-0.4	Cc1ccc2c(cnn2C(=O)CCC(=O)NCc2ccccc2Cl)c1
-0.5	x	x	x	i	x	-3	1	-2.1	O=C(C[C@@H]1C=C[C@H](NC(=O)C2CCC2)[C@@H](CO)O1)NCC1CC1
-7.3	0.7	x	-4	i	4.4	1	4	-2.4	CC(NC(=O)CN1CCN(C(=O)c2cccs2)CC1)c1ccc(F)cc1F (stereo not drawn)
-13	x	x	x	i	-5.8	9	12	-3.4	CC1(C(=O)NS(=O)(=O)c2cccs2)CCN1C(=O)CCc1ccc(Cl)cc1Cl (stereo not drawn)
-0.5	0.66	33%	1	i	-11	24	12	12	COC(=O)C(=C/C=C/c1ccco1)C(=O)OC
-12	x	x	x	i	x	-6	-13	0.8	Cc1cc(C(=O)Nc2cccc3c2O[C@H](CN(C)S(=O)(=O)c2cccs2)[C@H](C)CN([C@@H](C)CO)C3=O)n(C)n1
-0.4	0.69	-1%	-1	i	0.0	5	7	-0.5	O=C(NNC(=O)C1CC1c1ccccc1)c1ccccc1[N+](=O)[O-] (stereo not drawn)
39*	0.76	x	-13	i	1.1	-38*	-21*	2.0*	CCOC(=O)C1CCN(C2=C(NS(=O)(=O)c3ccc(Br)cc3)C(=O)c3ccccc3C2=O)CC1
-8.4	0.79	x	-14	i	3.1	-18	-17	-3.0	COc1ccc2cc(-c3cccnc3)ncc2c1
x	0.71	-2%	-10	x	-1.9	x	x	x	Cn1c(C(=O)O)c(CC(=O)NCc2cccnc2)c2ccccc21
-1.7	x	x	x	i	x	0	3	-0.9	C[C@@H]1CCCCO[C@@H](CN(C)Cc2ccc(C(=O)O)cc2)[C@H](C)CN([C@H](C)CO)C(=O)c2cc(NS(=O)(=O)c3ccc(Cl)cc3)ccc2O1
x	0.68	-3%	-6	x	3.0	x	x	x	COc1ccc(C)cc1-n1nnnc1SCc1nc2ccccc2s1
-0.3	0.68	-16%	-5	x	-1.3	-29*	-21*	5.4*	CSc1cccc(NC(=O)CCc2ccccc2)c1
6.0	0.68	18%	-6	i	43*	7	7	14	COC(=O)[C@H]1[C@H]2C[C@@H]3c4[nH]c5cc(OC)ccc5c4CCN3C[C@H]2C[C@@H](OC(=O)c2ccc(N)cc2)[C@@H]1OC

4 compounds from above, arranged by their value in Ecoli growth, falling:
AF4-AF9 inh	Ecoli growth	Vif TR-FRET	ALR inh	FGF22 binding	HNF4A DNA FP	Ecoli rRNA inh	Ecoli rRNA inh OD600	Ecoli rRNA inh RFP	smiles
-8.4	0.79	x	-14	i	3.1	-18	-17	-3.0	COc1ccc2cc(-c3cccnc3)ncc2c1
-9.3	0.77	x	-4	i	-0.7	14	13	-0.4	Cc1ccc2c(cnn2C(=O)CCC(=O)NCc2ccccc2Cl)c1
39*	0.76	x	-13	i	1.1	-38*	-21*	2.0*	CCOC(=O)C1CCN(C2=C(NS(=O)(=O)c3ccc(Br)cc3)C(=O)c3ccccc3C2=O)CC1
-0.3	0.68	-16%	-5	x	-1.3	-29*	-21*	5.4*	CSc1cccc(NC(=O)CCc2ccccc2)c1
